High-throughput results deposited in PubChem BioAssay by National Center for Advancing Translational Sciences (NCATS).
PINK1 expr mod: modulators of PINK1 expression; PINK1 immunofluorescence, high-content cytometry, 24 h; Potency, µM (doses to about 76.6 µM), for the others: top-dose activation (PINK1 increase), usual class: activators; hit rate 0.2% among 410,000; active = well fitted activation curve with a large enough effect; inconclusive = small, poorly fitted or top-dose-only effect; inactive = flat fitted curve, though single readings scatter; cell line not stated here;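 note: potency is the fitted concentration of half-maximal effect; % of control where 0% means no effect; nearly all actives have a fitted effect of over 65% in size; a mitochondrial uncoupler was the plate control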
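A stable cell line was treated with compounds at 5 concentrations for 24 hours, with CCCP as control. PINK1 levels and mitochondrial localization were measured by immunofluorescence with mitochondrial, cell and nuclear markers after fixation, read by laser-scanning cytometry.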
D2 ag: activates the human D2 dopamine receptor; DiscoveRx PathHunter D2 beta-arrestin, luminescence, 90 min; 100% = 57 uM dopamine signal; activation, % (test concentration not listed); hit rate 0.084% among 360,000; AID 624465; in the data active = activation above about 40%; inconclusive = about 15% to 40%; inactive = below about 15%; note: compound concentration not given in the record; the text of the record calls up to 30% inactive
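DiscoveRx PathHunter D2 beta-arrestin cells (2,100/well) attached overnight, then compound-stimulated 90 min at 37 C in HBSS/10 mM HEPES/0.1% Tween-20 buffer; beta-galactosidase complementation read by luminescence after 1 h at ambient temperature. Dopamine 57 uM final (EC100) as control.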
Six1-Eya2 blk: Six1/Eya2 interaction inhibition; Q15475+O00167; AlphaScreen GST-Six1/His-Eya2 binding, biochemical; stronger effect = lower value; control for the full effect not named in the record; activity change, % (concentration not given with the values); hit rate 0.56% among 360,000; AID 651725; in the data active = activity change below about -65%; inconclusive = about -30% to -65%; inactive = above about -30%; note: % is set by controls: 0 for no effect and ±100 for the full control effect
Target sequence (O00167 whole entry, looked up): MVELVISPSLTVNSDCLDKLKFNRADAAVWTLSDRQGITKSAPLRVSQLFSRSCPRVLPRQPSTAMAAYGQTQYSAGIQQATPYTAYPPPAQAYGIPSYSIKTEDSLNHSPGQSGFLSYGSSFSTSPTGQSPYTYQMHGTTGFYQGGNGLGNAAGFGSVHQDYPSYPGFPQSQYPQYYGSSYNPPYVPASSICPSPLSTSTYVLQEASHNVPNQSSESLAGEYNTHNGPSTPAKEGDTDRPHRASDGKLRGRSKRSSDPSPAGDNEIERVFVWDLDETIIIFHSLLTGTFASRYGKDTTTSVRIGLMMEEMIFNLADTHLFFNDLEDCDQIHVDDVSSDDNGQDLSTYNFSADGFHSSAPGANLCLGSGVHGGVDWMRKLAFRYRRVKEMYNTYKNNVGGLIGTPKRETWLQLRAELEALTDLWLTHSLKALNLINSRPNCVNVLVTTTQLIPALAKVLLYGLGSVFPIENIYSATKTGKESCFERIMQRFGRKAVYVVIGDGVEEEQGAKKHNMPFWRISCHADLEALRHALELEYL
Target sequence (Q15475 whole entry, looked up): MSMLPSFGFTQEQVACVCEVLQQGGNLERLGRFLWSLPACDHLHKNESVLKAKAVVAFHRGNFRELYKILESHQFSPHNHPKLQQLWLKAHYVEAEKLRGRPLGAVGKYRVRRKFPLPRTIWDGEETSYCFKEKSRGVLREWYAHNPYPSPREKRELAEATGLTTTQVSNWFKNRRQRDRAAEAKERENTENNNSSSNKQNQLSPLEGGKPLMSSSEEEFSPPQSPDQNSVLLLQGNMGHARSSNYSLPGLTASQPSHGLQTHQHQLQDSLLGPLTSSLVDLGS
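Six1/Eya2 binding was read as AlphaScreen signal after compounds were pinned into GST-Six1 plus His-tagged Eya2 (5X stock 250/500 nM) in pH 8.0 Tris/NaCl/TCEP buffer, beads added, then incubated 1 h, 37 C, dark.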
TRPML1 agonist: activates the human TRPML1 channel; Q9GZU1; TRPML1-expressing cells, Ca2+ dye fluorescence, FDSS; host cell line not named in the record; reference of the full effect not given here; activation, % (test concentration not listed); hit rate 0.12% among 410,000; AID 624414; in the data active = activation above about 50%; inconclusive = about 30% to 50%; inactive = below about 30%; note: 0% is about no effect; the text of the record puts the active cut at 80%
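Kinetic FDSS Ca2+ read in Tet-induced TRPML1-DL cells (ABD Ca8 dye plus quencher, 45-90 min RT loading): baseline, then compound, then 110 s agonist window; EC80 agonist 54-4 at 4uM final added afterwards for a 110 s antagonist window.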
CtBP-E1A blk: CtBP/E1A binding inhibition; AlphaScreen GST-E1A/His-CtBP binding, 1536-well; stronger effect = lower value; control for the full effect not named in the record; activity change, % (no concentration beside the values); hit rate 0.49% among 340,000; in the data active means activity change below about -65%; inconclusive means about -30% to -65%; inactive means above about -30%; note: % is set by controls: 0 for no effect and ±100 for the full control effect; compound concentration not given in the record
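AlphaScreen with 125 nM GST-E1A and 125 nM His-CtBP (5X stocks) in Tris pH 8.0, 300 mM NaCl, BSA, Tween 20, TCEP. Compounds preincubated 2 h at 37 deg C, then glutathione donor/nickel acceptor beads added for 1 h at 37 deg C in dark.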
TRPML1 blocker: human mucolipin-1 channel inhibition | activity change, negative = inhibition, % (no concentration beside the values) | TRPML1-inducible cells, Ca2+ dye fluorescence, FDSS; stronger effect = lower value; inhibition of EC80 agonist-evoked calcium signal | Q9GZU1 | AID 624415 | hit rate 0.02% among 390,000; in the data active means activity change below about -50%; inconclusive means about -30% to -50%; inactive means above about -30%;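 note: stimulus is agonist 54-4 at its EC80 concentration; % is set by controls: 0 for no effect and ±100 for the full control effect; compound concentration not given in the record; the text of the record puts the active cut at -80%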
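Tet-induced TRPML1-DL cells loaded with Ca8 no-wash calcium dye were read kinetically on FDSS. Compound addition was followed by EC80 agonist 54-4 (4 uM final); inhibition was read over 110 s.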
* marks the source's active call; other numbers are inactive results; ? = inconclusive; · = not tested or not shown; & = joins results of further samples; [ ] = another dose, or the depositor's remark.

item	compound	TRPML1 blocker	CtBP-E1A blk	PINK1 expr mod	TRPML1 agonist	D2 ag	Six1-Eya2 blk
1	CC(C)COC(=O)N1C[C@H](O)C[C@H]1C(=O)Nc1ccc(Cl)cc1	-3	1	1.0%	-0.1	-2.0	8
2	C[C@H](NC(=O)c1ccccc1Cl)C(=O)OCC(=O)NNC(=O)c1cccs1	8	12	4.9%	0.0	-6.9	0
3	CCc1ccc(NC(=O)C(C)OC(=O)Cc2cc(OC)c(OC)c(OC)c2)cc1 (configuration not stated)	-14	1	2.0%	1.2	1.3	2
4	O=C(NCCCN1CCCC1=O)c1cc(S(=O)(=O)N2CCN(c3ccccc3)CC2)ccc1Cl	2	-2	1.9%	2.4	-2.8	-1
5	COc1ccc(OC)c(NC(=O)c2ccc3c(c2)C(=O)N(CC2CCCO2)C3=O)c1 (configuration not stated)	0	-1	19%	-0.2	-0.6	9
6	CC(=O)Nc1cccc(C(=O)Nc2ccc(S(=O)(=O)NC3=NCCCCC3)cc2)c1	-5	-5	-1.2%	-0.2	-2.9	-1
7	Cc1ccc(NC(=O)Cn2nc(C)c([N+](=O)[O-])c2C)cc1C	14	3	2.8%	-0.8	0.5	-2
8	COC(=O)c1sccc1Oc1ccc(Cl)cc1N1C(=O)CCC1=O	3	0	2.1%	-0.5	-6.3	16
9	O=C(O)c1cccc(S(=O)(=O)Nc2ccccc2N2CCOCC2)c1	1	·	-1.3%	0.0	-4.3	-4
10	O=C(CNC(=O)[C@@H]1Cc2ccccc2CN1)NCc1ccco1	8	·	-0.5%	0.8	-7.2	-3
11	COc1ccccc1CNC(=O)CN(C)S(=O)(=O)c1ccc(F)cc1	-2	-2	-1.0%	1.0	-4.0	-3
12	O=C(Cc1cccs1)NCc1cc(Cl)cc(Cl)c1	-6	6	1.6%	1.7	1.3	7
13	CC1(CCCN2C(=O)c3ccccc3C2=O)OCCO1	34	-2	1.1%	0.3	2.6	5
14	COc1cccc(-c2nc(SCC(=O)NC3CCCC3)c(-c3ccccc3)[nH]2)c1	3	·	-1.7%	1.4	·	·
15	COc1ccc(NC(=O)CN(C)C(=O)c2cnc(Cl)c(Cl)c2)cc1	-4	0	-0.3%	0.5	1.3	1
16	COc1ccc(OC)c(S(=O)(=O)N2CCN(CC(O)COc3ccc(C#N)cc3)CC2)c1 (configuration not stated)	-7	-12	-0.3%	-0.8	-1.6	-2
17	CNS(=O)(=O)c1cccc(C(=O)OCC(=O)C23CC4CC(CC(C4)C2)C3)c1	-17	14	0.4%	-0.8	0.8	6
18	CN(C)S(=O)(=O)c1ccc(S(=O)(=O)N(CC(=O)Nc2ccccc2)CC2CCCO2)cc1 (configuration not stated)	-14	-3	-2.4%	0.6	-2.1	10
19	CC1=NN(C(=O)COc2cc(C)ccc2C(C)C)C(O)(c2ccccc2)C1 (configuration not stated)	33	-2	7.0%	3.4	-1.5	-4
20	CCOC(=O)Cn1c(=O)oc2cc(S(=O)(=O)N(C)Cc3ccco3)ccc21	19	4	0.9%	-0.6	-8.1	-7
21	CCOC(=O)C(=O)Nc1nnc(Cc2ccc(OC)c(OC)c2)s1	12	12	2.3%	1.9	3.8	5
22	CCOc1ccc2oc(C(=O)NC(C)(C)CC)c(C)c2c1	-28	7	20%	4.4	-4.7	13
23	CCN(CC)c1ccc(-n2c(C)cc(C=O)c2C)cc1	12	-22	10%	0.1	-0.4	?
24	COCCNC(=O)/C(C#N)=C/c1cc(C)n(C2CCCCC2)c1C	6	·	1.0%	-1.0	4.7	4
25	C=CCNc1nnc(SC2CC(=O)N(c3ccc(OC)cc3)C2=O)s1 (configuration not stated)	6	-11	4.4%[38.3 µM]	-0.1	4.4	0
26	CSc1ccc(CNC(=O)C2(C)CCCN2CC(C)C)cc1 (configuration not stated)	·	-14	5.6%	-0.6	-3.8	9
27	Cc1ccc(C)c(NC(=O)CSc2nnc(-c3n[nH]c4ccccc34)o2)c1	-4	-2	-0.4%	-0.5	-1.6	-14
28	COc1ccc(/C=N/NC(=O)c2cccc(Br)c2)cc1CSc1ccccn1	-17	3	3.6%	1.4	-1.6	-14
29	O=c1c2ccccc2nc(/C=C/c2ccc(Br)cc2)n1CCCO	·	-2	0.9%	·	-11	-6
30	CCOC(=O)c1c(C)[nH]c(C)c1S(=O)(=O)NCC(=O)NCc1ccccc1Cl	3	·	1.8%	-0.9	·	·
31	CC(C)c1ccccc1NC(=O)c1cccc(NC(=O)c2ccccc2)c1	0	-11	-1.0%	-1.0	-1.8	-15
32	Cc1cc2nccc(-c3ccc(F)cc3)n2n1	-3	12	-3.0%	1.7	6.6	4
33	CC(C)c1ccc2oc(-c3cccc(NC(=O)c4ccc5c(c4)OCCO5)c3)nc2c1	-9	·	5.7%	2.4	·	·
34	Cc1sc2ncnc(NCC(c3ccccc3)N(C)C)c2c1C (configuration not stated)	-4	-4	-1.1%	0.2	-0.7	-4
35	N#Cc1ccc(OCC(=O)N/N=C/C2CC=CCC2)cc1 (configuration not stated)	9	7	2.3%	-0.5	-4.5	2
36	COc1ccc(NC(=O)c2oc3ccccc3c2NC(=O)c2cc(C)cc(C)c2)c(OC)c1	-6	·	0.7%	-0.6	·	·
37	O=C(COC(=O)c1ccc(Cl)c(S(=O)(=O)N2CCCCC2)c1)NCC1CCCO1 (configuration not stated)	-7	-10	0.3%	0.4	0.9	9
38	NS(=O)(=O)c1ccc(NC(=O)COC(=O)COc2ccccc2)cc1	-25	·	0.8%	0.4	-7.1	1
39	COc1ccc(-c2cc(-c3ccc(N)cc3)nc(N)c2C#N)cc1OC	-2	-7	0.9%	0.8	0.5	-5
40	CCC(=O)Nc1ccc2c(c1)N(C(C)=O)c1ccccc1CC2	-6	5	0.3%	0.6	-2.0	-5
41	COc1ccccc1CCNC(=O)C(=O)NCC1OCCN1S(=O)(=O)c1ccc([N+](=O)[O-])cc1 (configuration not stated)	-7	-20	4.6%	0.3	?	-7
42	Cc1ccccc1OCCC(=O)N1CCN(S(=O)(=O)c2ccc(Br)cc2)CC1	-15	8	-1.2%	-0.4	-3.1	-6
43	Cc1cccc(OCC(=O)Nc2ccc(S(=O)(=O)Nc3onc(C)c3C)cc2)c1C	0&-7	10	-0.6%&1.2%	-0.3&0.2	0.2	14
44	CC(C)(C)OC(=O)C[C@@H]1C/C=C\C[C@@H](CC(=O)N[C@H](CO)Cc2ccccc2)C(=O)N2CCC[C@H]2COC1=O	2	6	1.1%	-0.8	?	2
45	CCC1(C)Cc2ccccc2-c2nc(NCCO)n(-c3ccccc3)c(=O)c21 (configuration not stated)	-16	-4	-6.7%[38.3 µM]	1.8	0.1	-2
46	CCCS(=O)(=O)N1CC(=O)N(c2ccccc2C)C(C)(C(=O)NC2CCCCC2)C1 (configuration not stated)	6	·	0.5%	0.6	·	·
47	CCOC(=O)c1ccc(NC(=O)CCC2COc3ccccc3O2)cc1 (configuration not stated)	-4	7	5.9%[38.3 µM]	1.8	2.8	3
48	O=C(NCC(c1cccs1)S(=O)(=O)c1cccs1)c1ccccc1F (configuration not stated)	-3	·	0.1%	0.1	·	·
49	C#CCOCCOCCOCCNc1nc(N2CCN(C(=O)C([C@@H](C)CC)n3cc(C(N)CC(C)C)nn3)CC2)nc(N2CCN(C(=O)[C@H](CCC(=O)O)n3cc(C(N)Cc4ccc(O)cc4)nn3)CC2)n1 (some centres not stated)	54	-11	3.0%	-0.5	-3.2	-11
50	COc1ccc2c(c1OC)C(=O)N(c1ccccc1)C2=O	-6	-4	-0.4%	-0.6	-3.2	-6
51	CC(C)C(=O)OCC(=O)Nc1ccc(N=Nc2ccccc2)cc1	2	?	1.0%	1.4	-3.7	?
52	CCCCNC(=O)c1cc2cc(OC)ccc2[nH]1	-8	·	-1.2%	-0.7	-2.4	1
53	COc1cc2c(cc1OC)C(C)N(C(=O)c1cc3c(s1)-c1ccccc1OC3)CC2 (configuration not stated)	1	1	-0.4%	3.0	0.4	-1
54	COc1ccc(F)cc1C(=O)C1CCCN(C(=O)C2=C(C)OCCO2)C1 (configuration not stated)	5	-7	-1.0%	1.0	-3.3	7
55	Cc1ccc(OCC(=O)Nc2cc(-c3nn4c(C)nnc4s3)ccc2C)cc1	10	6	7.4%	1.6	1.8	1
56	CCOc1ccc(S(=O)(=O)NC2CC2)cc1	-18	-16	-1.4%	0.6	-2.7	-4
57	O=C(Nc1ccccc1[N+](=O)[O-])C1(c2ccccc2)CCOCC1	9	4	0.3%	0.5	6.1	-20
58	Cc1cc(CNC(=O)COC(=O)Cn2[nH]c(=O)c3ccccc3c2=O)cc(C)c1O	-10	-24	-0.8%	0.2	-2.7	5
59	COc1ccc(N2CCN(C(=O)CSc3nnc4ncccn34)CC2)cc1	23	15	30%[38.3 µM]	1.0	1.2	0
60	COc1cc(CCC(=O)OCC(=O)NCC2CCCCC2)cc(OC)c1OC	23	4	2.2%	0.7	-2.6	11

Brought forward from above: 3 entries, followed by the next part.
item	compound	TRPML1 blocker	CtBP-E1A blk	PINK1 expr mod	TRPML1 agonist	D2 ag	Six1-Eya2 blk
58	Cc1cc(CNC(=O)COC(=O)Cn2[nH]c(=O)c3ccccc3c2=O)cc(C)c1O	-10	-24	-0.8%	0.2	-2.7	5
59	COc1ccc(N2CCN(C(=O)CSc3nnc4ncccn34)CC2)cc1	23	15	30%[38.3 µM]	1.0	1.2	0
60	COc1cc(CCC(=O)OCC(=O)NCC2CCCCC2)cc(OC)c1OC	23	4	2.2%	0.7	-2.6	11
61	Cc1ccc(-c2nnc(Nc3ccc(Cl)cc3)c3ccccc23)cc1S(=O)(=O)N1CCOCC1	48	·	0.4%	-0.3	·	·
62	COc1ccc(OC)c(NC(=O)CSc2nnc3ccc(-c4ccncc4)nn23)c1	18	-6	-0.5%	-1.1	5.2	-7
63	O=C(CC(c1cccs1)S(=O)(=O)c1ccccc1)c1ccc(F)cc1 (configuration not stated)	1	-9	1.1%	0.1	-2.1	0
64	O=C(Cn1cc([N+](=O)[O-])cn1)Nc1cccnc1	-7	0	-1.0%	-0.6	-0.3	2
65	COc1ccc(NC(=O)C2CCCCN2N)cc1OCC(C)C (configuration not stated)	-7	2	·	-0.1	-0.4	-5
66	Cc1cc(=O)n(CCCc2ccccc2)[nH]1	4	-6	0.2%	-0.4	-7.2	-18
67	CCC(=O)Nc1cccc(NC(=O)c2ccc(C)cc2Cl)c1	18	2	0.0%	0.4	-0.2	1
68	O=C(c1ccc2c(c1)CCN2S(=O)(=O)c1ccc(Cl)cc1)N1CCN(c2ccc(F)cc2)CC1	2	·	1.0%	0.5	·	·
69	Cc1ccc(OCCSc2nc3ccccc3n2CC(=O)N2CCOCC2)c(C)c1	24	·	-1.1%	1.4	·	·
